MgrA DNA FP: modulators of Staphylococcus aureus MgrA DNA binding. fluorescence polarization. inhibition, %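 (about 10 µg/mL by stock and volumes)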. actives 0.13% (n = 84,000);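 active means above 50% in either of two replicates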;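 further: 0% = protein plus DNA without compound and 100% = DNA alone without protein; higher means less MgrA bound to DNA so lower polarization; one replicate is shown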
S aureus helic: S. aureus DNA helicase inhibition | purified S. aureus helicase, fluorescence unwinding assay; about half of the hits fall short of the stated cut | inhibition, %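 (tested at about 80 µM)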 | actives 0.05% (n = 120,000) | AID 485395;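 active means both duplicates at 50% or more, or one of them with a favoured structure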;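 further: 0% = mean of negative control wells and 100% = mean of positive control wells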
Active calls of the source: *; / = not tested or not shown. A portion of the library; rates above refer to the full screens.

SMILES	MgrA DNA FP	S aureus helic
Cc1cccn2c(=O)c3cc(C(=O)N4c5ccccc5CC4C)n(C)c3nc12 (stereo not drawn)	1.9	8.0
CCOC(=O)c1c(C)[nH]c2c1cc(O)c1ccccc12	20.8	7.0
O=C1c2ccccc2C(=O)N1OCCOCCON1C(=O)c2ccccc2C1=O	/	7.0
O=C1NC(=Nc2ccc(O)cc2)S/C1=C\c1ccc(Cl)cc1Cl	/	15.0
CC1=C(C(=O)NCCC(C)C)C2(CCC(C)CC2)OC1=O (stereo not drawn)	/	1.0
Cc1noc(/C=C/c2ccco2)c1S(=O)(=O)N1CCC(C(=O)N2c3ccccc3CC2C)CC1 (stereo not drawn)	-0.3	16.0
CCC(Sc1nncn2c1cc1sccc12)C(=O)N1CCOCC1 (stereo not drawn)	-2.2	3.0
CC1=NN(c2ccccc2)C(=O)CC1	3.0	/
CCOC(=O)CSc1nc(C2CC2)cc(-c2ccc(Cl)cc2)c1C#N	0.4	/
CCN1C(=O)C(C2SC(=S)N(CC)C2=O)SC1=S (stereo not drawn)	1.3	0.0
N#Cc1c(-n2ncnc2-c2ccc(Cl)cc2)sc2c1CCCCC2	/	-20.0
COc1ccc(NC(C)=O)cc1C	1.3	6.0
Cc1ccccc1NS(=O)(=O)c1ccc(C2CNC(=O)C2)cc1 (stereo not drawn)	0.8	4.0
O=C(CN1C(=O)c2cccnc2Oc2ccccc21)NCc1ccccc1	-1.0	10.0
COC(=O)c1ccc(OCC(=O)c2cc(C)n(-c3cc(C)on3)c2C)cc1	/	6.0
COC(=O)c1cc(C(C)(C)C)[nH]n1	/	14.0
Cc1ccc(NC(=O)C2CCN(S(=O)(=O)c3cccs3)CC2)cc1C	/	-4.0
Cc1cc(=O)[nH]c2c(C)cc(S(=O)(=O)N3CCOCC3)cc12	/	9.0
CCn1c(=O)c(C(=O)CNc2ccc(S(C)(=O)=O)cc2)c(N)n(Cc2ccccc2)c1=O	/	-10.0
COc1cc(CC(=O)OCC(=O)NC2CCCCC2C)cc(OC)c1OC (stereo not drawn)	/	4.0
Cc1cc(=O)oc2cc(OC(=O)c3cc(S(=O)(=O)N(C)C)ccc3N3CCCC3)ccc12	/	-1.0
COc1cc(CN2CCCN(Cc3cc(OC)c(OC)c(OC)c3)C2c2cc(Br)ccc2O)cc(OC)c1OC	3.5	/
CN(CCO)c1ncnc2c1sc1nc3c(cc12)COC(C)(C)C3	-5.2	12.0
Cc1ccc(-n2c(SCC(=O)C(C)(C)C)nc3ccc(C)cc3c2=O)cc1	-2.0	/
COc1ccc2nc(NC(=O)C3CCCN(S(=O)(=O)c4cccc5nonc45)C3)sc2c1 (stereo not drawn)	0.5	-2.0

Going on with the list.
SMILES	MgrA DNA FP	S aureus helic
Cc1cccc(CCNC(=O)c2nn(C)c3c2COc2ccccc2-3)c1	4.7	10.0
Cc1ncn2cc(-c3ccc(Cl)cc3Cl)[nH]c(=O)c12	-1.7	/
CC(=O)Nc1cccc(-c2nc(-c3ccccc3)nc3ccccc23)c1	0.0	/
O=C(O)C1Cc2ccccc2CN1S(=O)(=O)c1ccccc1 (stereo not drawn)	/	25.0
O=C1c2ccccc2S(=O)(=O)N1CCSc1nncn1-c1ccccc1	/	1.0
C1CNC(C23CC4CC(CC(C4)C2)C3)=N1	/	5.0
Nc1nnnn1CC(=O)N(Cc1ccco1)C1(C(=O)Nc2ccccc2)CCCCC1	-5.3	-3.0
O=C(CCS(=O)(=O)Cc1ccccc1)NCc1ccc2c(c1)OCO2	1.2	-12.0
C#CC(CC)(CC)NC(=O)c1ccc(Cl)cc1	/	-9.0
CN(C)C(CNC(=O)c1n[nH]c(=O)c2ccccc12)c1ccccc1 (stereo not drawn)	/	19.0
CC(C)N(Cc1nc2ccccc2c(=O)[nH]1)C(=O)Cc1ccc(S(=O)(=O)N2CCOCC2)s1	/	-6.0
COc1ccc(CN=Cc2cc(OC)c(OC)c(OC)c2)cc1	-0.4	/
NC(=O)c1cc(Cl)nc2ccccc12	0.5	7.0
O=C(Nc1ccc(S(=O)(=O)NCCc2ccccc2)cc1)C1c2ccccc2Oc2ccccc21	2.5	5.0
Cc1nc(Cc2n[nH]c(=S)o2)cs1	/	-4.0
CCc1nc(Cl)c(C#N)c2c1CCCC2	-1.0	2.0
C=CCN1C(=O)CSC1=Nc1ccc(NC(C)=O)cc1	/	3.0
CCc1ccc(NC(=S)NNC(C)(C)C)cc1	/	-14.0
CCOC(=O)c1cnc2c(c(C3CC3)nn2C)c1N1CCOCC1	0.4	/
COC(=O)c1cc(=O)n2c(c1C(=O)c1ccc(Cl)cc1)SCC2	-1.1	/
O=c1c2ccccc2c(/C=N/NS(=O)(=O)c2ccccc2)c(O)n1-c1ccccn1	/	-85.0
CCSC1=N/C(=C\c2ccc(C(=O)O)cc2)C(=O)S1	4.4	16.0
CN(C(=O)Nc1ccccc1)C1CCCCC1	-0.5	/
CCCc1cc(=O)n2nc(N3CCC(C(=O)NCC)CC3)sc2n1	/	-13.0
O=C(c1ccccc1)n1sc(=O)c2ccccc21	/	16.0

Next compounds:
SMILES	MgrA DNA FP	S aureus helic
O=c1c2ccccc2nc(SCc2ccccc2)n1CCCO	/	24.0
N[C@@H](CCC(=O)N[C@@H](CS)C(=O)NCC(=O)O)C(=O)O	1.0	/
COc1cccc(C2OC(=O)c3ccccc3N2C(C)=O)c1OC(C)=O (stereo not drawn)	/	11.0
C=CCSc1snnc1-c1ccc(Cl)cc1	0.4	/
FC(F)(F)c1nc(N2CCCC2)nc2c1CCCCC2	1.4	12.0
CC1CC(NC(=O)CC#N)CC(C)(C)C1 (stereo not drawn)	-1.4	/
COc1ccc(S(=O)(=O)c2ccc(OC)cc2)cc1	-0.2	10.0
N#Cc1ccsc1NC(=O)CCN1CCN(S(=O)(=O)c2ccc3c(c2)OCCCO3)CC1	/	-12.0
CCOC(=O)c1[nH]c(C)c(C(=O)N(Cc2ccccc2)C(C)C)c1C	/	5.0
Cc1nc(-c2cn[nH]c2-c2ccc(O)c(C)c2O)cs1	/	-16.0
O=C(CN1CCN(S(=O)(=O)c2ccc(Cl)cc2)CC1)N(C1CCCCC1)C1CCS(=O)(=O)C1 (stereo not drawn)	/	-2.0
CCOC(=O)C1=C(C)N=c2s/c(=C\c3cccnc3)c(=O)n2C1c1c(OC)ccc2ccc(OC)cc12 (stereo not drawn)	1.7	/
Nc1cccc2cccc(C(=O)O)c12	1.8	-3.0
COc1ccc(-c2csc(NC(=O)C3COc4ccccc4O3)n2)cc1 (stereo not drawn)	/	-21.0
CC1CCN(CC(O)CN2c3ccccc3Sc3ccccc32)CC1 (stereo not drawn)	0.1	17.0
COc1cc(C2CC(=O)N(C)c3ccccc3S2)cc(OC)c1OC (stereo not drawn)	/	-14.0
Cc1ccc(N=c2scc3n2CCC3)cc1	/	9.0
Cc1ccc(CS(=O)(=O)c2cccs2)cc1	2.9	/
C/S(=N\S(=O)(=O)c1cccc2nsnc12)c1ncccc1C(F)(F)F (stereo not drawn)	1.1	/
COc1ccc(C2C(C#N)=C(N)OC3=C2C(=O)CC(C)(C)C3)cc1COc1ccccc1[N+](=O)[O-] (stereo not drawn)	-0.6	/
CC(=O)N1c2ccccc2C(CSc2nnc(-c3ccccc3)o2)=CC1(C)C	2.0	1.0
CCCCn1nc(C(=O)N(C)Cc2cc(Br)ccc2OC)ccc1=O	/	-7.0
COc1ccc(CNC(=O)C2CCCCC2C(=O)N2CCc3ccccc32)cc1OC (stereo not drawn)	/	-15.0
Cc1ccc(S(=O)(=O)N2CCC(C(N)=O)CC2)cc1C	/	26.0
Cc1cc2c(cc3c(SCC(=O)Nc4ccc(Cl)cc4F)nnc(C)n32)o1	/	-19.0

Additional structures:
SMILES	MgrA DNA FP	S aureus helic
O=C(N1CCCCC1)C1(S(=O)(=O)c2ccc(Cl)cc2)CC1	0.7	-3.0
NNC(=O)COc1ccccc1CSc1ccc(Cl)cc1	-1.6	/
CC1=CC(C)C(C(=O)O)C(C(=O)N2CCN(C)CC2)C1 (stereo not drawn)	8.6	-8.0
CN(/N=C/c1ccc(C(C)(C)C)cc1)C1=NCCN1	0.6	12.0
CSc1nsc(SCC(=O)NC2CCCCC2)n1	1.8	7.0
O=C(O)/C=C/c1c(Cl)nc2ccccn12	/	-8.0
COc1ccc(C(=O)N2c3ccccc3CCc3ccccc32)cc1	-0.8	9.0
O=C1CS/C(=C\c2nc3ccccc3s2)N1	/	-16.0
CC1CCCCC1NC(=O)CCSCc1cccc(Cl)c1 (stereo not drawn)	0.0	8.0
COc1ccccc1NC(=O)C1CC(=O)N(C)C(=Nc2cccc(C(F)(F)F)c2)S1 (stereo not drawn)	1.1	/
O=C1CCC(O)N1CCc1cnc[nH]1 (stereo not drawn)	0.5	/
O=C(C1=C(O)c2ccccc2C1=O)c1cccs1	/	-15.0
O=c1ccn(-c2ccccc2)[nH]1	16.9	8.0
O=c1c(O)c(-c2cccs2)[nH]c2cc(Cl)ccc12	/	-49.0
CN(Cn1[nH]c(=O)ccc1=O)c1ccccc1	-2.2	17.0
CCOC(=O)c1c(NC(=O)CN2CCCC2c2cccn2C)sc(C)c1C (stereo not drawn)	/	9.0
Cc1ccc(C(=O)C(C)Sc2nnc3ccccn23)cc1 (stereo not drawn)	/	1.0
COc1cccc(NC(=S)N/N=C/c2ccc(O)cc2)c1	/	1.0
COc1ccc(NCn2nnc3ccccc32)cc1	-1.2	6.0
N/C(CS(=O)(=O)c1ccccn1)=N\OC(=O)c1ccc(Cl)cc1	-1.0	/
O=C(c1ccc(F)c(F)c1)c1cc2ccccc2o1	2.0	/
CCOC(=O)c1ccc2nonc2c1	0.4	/
CCN(CC(=O)Nc1ccc(NC(C)=O)cc1)C(=O)c1ccccc1SCc1c(C)noc1C	/	-7.0
Cc1cc(C)cc(-n2ccnc(NCc3ccc4c(c3)OCO4)c2=O)c1	/	4.0
Cc1cc(NC(=O)CSc2ncccn2)no1	4.8	9.0

6 entries out of the list, ordered by molar mass, low to high.
SMILES	MgrA DNA FP	S aureus helic
CCOC(=O)c1ccc2nonc2c1	0.4	/
O=C1CCC(O)N1CCc1cnc[nH]1 (stereo not drawn)	0.5	/
Cc1cc(NC(=O)CSc2ncccn2)no1	4.8	9.0
O=C(C1=C(O)c2ccccc2C1=O)c1cccs1	/	-15.0
CC1=CC(C)C(C(=O)O)C(C(=O)N2CCN(C)CC2)C1 (stereo not drawn)	8.6	-8.0
NNC(=O)COc1ccccc1CSc1ccc(Cl)cc1	-1.6	/

Next part:
SMILES	MgrA DNA FP	S aureus helic
Cc1ccnc2nc(C(=O)NC3CCCc4ccccc43)nn12 (stereo not drawn)	/	-1.0
NC(=O)C1CCN(Cc2cc(=O)n3ccsc3n2)CC1	/	4.0
Cc1ccc(Oc2ccc(C)cc2)cc1	0.9	/
O=S(=O)(c1ccccc1)c1ncc(C(F)(F)F)cc1O	-1.0	/
O=C(NCCC(=O)N1CCN(C(=O)c2ccco2)CC1)c1ccccc1Cl	/	1.0
CCN(CC)c1ncccc1C(=O)NCC1CCCO1 (stereo not drawn)	-3.4	12.0
CCCn1c(SC(C)C(=O)c2ccc(Cl)cc2)n[nH]c1=O (stereo not drawn)	/	6.0
CC(Oc1ccccc1)C(=O)OCc1nc2ccsc2c(=O)[nH]1 (stereo not drawn)	/	8.0
CN(C)/C=C(\C#N)C(=O)NCc1ccc(F)cc1F	/	2.0
CCOC(=O)C1C(=O)NC(N2CCc3ccccc32)=NC1c1ccco1 (stereo not drawn)	-0.3	11.0
O=C(CCS(=O)(=O)c1ccc2c(c1)OCC(=O)N2)NCc1ccccc1Cl	0.2	-2.0
OC1(C(F)(F)F)CC(c2ccncc2)=NN1 (stereo not drawn)	/	-19.0
O=C(C1CCCO1)N1CCN(C(=S)NC2CCCCC2)CC1 (stereo not drawn)	0.7	5.0
Cc1cc2oc(=O)cc(Cn3ccsc3=N)c2cc1C(C)C	/	6.0
COc1cc(C2NC(=O)c3cc([N+](=O)[O-])ccc3N2)cc(OC)c1OC (stereo not drawn)	-0.2	/
O=C(CSc1ccc(C(=O)O)cn1)Nc1ccc(OC(F)(F)F)cc1	/	-5.0
Cc1cc2ncc(S(=O)(=O)C(C)(C)C)c(N)n2n1	/	-9.0
CC(=O)Nc1ccc(S(=O)(=O)c2cc(O)ccc2O)cc1	-0.8	4.0
Cc1ccc(C)c(S(=O)(=O)CCC(=O)O)c1	-4.5	3.0
CNC(=O)c1cccc(N)c1	/	7.0
O=S(=O)(c1ccccc1)N(Cc1ccccc1)Cc1ccccc1	1.1	20.0
COc1ccc(NC(=O)c2cnc3scc(C)n3c2=O)c(OC)c1	/	15.0
CC(C)NC(=O)c1c2c(nc3ccccc13)CCCC2	-1.2	-21.0
CC(CN1CCOCC1)OC(=O)c1ccc2c(c1)OCCO2 (stereo not drawn)	-6.8	12.0
O=c1[nH]c2ccc(S(=O)(=O)NC3CC3)cc2[nH]1	1.8	10.0
Cc1ccc(C)c(CSc2nnc(C)n3c2cc2occc23)c1	/	-3.0

Among those listed so far, 7 contain a cyano group.
SMILES	MgrA DNA FP	S aureus helic
CCOC(=O)CSc1nc(C2CC2)cc(-c2ccc(Cl)cc2)c1C#N	0.4	/
N#Cc1c(-n2ncnc2-c2ccc(Cl)cc2)sc2c1CCCCC2	/	-20.0
CCc1nc(Cl)c(C#N)c2c1CCCC2	-1.0	2.0
CC1CC(NC(=O)CC#N)CC(C)(C)C1 (stereo not drawn)	-1.4	/
N#Cc1ccsc1NC(=O)CCN1CCN(S(=O)(=O)c2ccc3c(c2)OCCCO3)CC1	/	-12.0
COc1ccc(C2C(C#N)=C(N)OC3=C2C(=O)CC(C)(C)C3)cc1COc1ccccc1[N+](=O)[O-] (stereo not drawn)	-0.6	/
CN(C)/C=C(\C#N)C(=O)NCc1ccc(F)cc1F	/	2.0
